Calb biofilm kill: mixtures killing C. albicans biofilm; C. albicans biofilm persisters + clotrimazole, fluorescence viability; primary screen in compound mixtures of four per well; inhibition, % at 7.6 µM; actives 0.02% (n = 120,000); AID 1242;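 active = inhibition above 30.3% in the primary screen of four-compound pools, then above 30% when the compound was retested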;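 note: compounds exposed to preformed 24 h biofilms for 48 h; the number belongs to the whole pool; some results filed as inactive read as strong as hits; inactives centre near 12; 0% = biofilm with clotrimazole alone and 100% = kill control; retested singly at about 60 µM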
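Test system: C. albicans CAF4-2 wild-type biofilms; buffer or medium: RPMI/MOPS medium, pH 7.0; schedule: 24 h biofilm formation, then 48 h compound exposure, 37 °C; detection: Alamar Blue fluorescence; measure: percent inhibition of biofilm viability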
* marks the source's active call; other numbers are inactive results.

SMILES	Calb biofilm kill
CC(=O)c1cc(-c2ccccc2)n(CCC(=O)NC2CCCCC2)c1C	8
N/C(CSc1ccccn1)=N\OCc1c(Cl)cccc1Cl	14
CCOC(=O)c1c(C)n(CC(O)CN(CC)CC)c2cc(Br)c(OC)cc12 (stereo unspecified)	20
Cc1ccccc1Nc1cc(C)c2c(O)cccc2n1	19
CCOc1ccc(/C(O)=C2/C(=O)C(=O)N(c3ncccn3)C2c2ccc(C)cc2)cc1 (stereo unspecified)	24
Cc1cc2cc(CNC(=O)CCC(=O)O)ccc2n1C	10
Cc1cccc(NC(=O)Nc2cc(C)cc(C)n2)c1	5
Cc1cnc(NC(=O)[C@H](C)N2C(=O)C3CCCCC3C2=O)s1 (stereo partly specified)	16
CN(C)S(=O)(=O)c1cccc(NC(=O)CNC2CCCCC2)c1	14
OCCC1CN(Cc2cccc3nccnc23)CCN1C1CCCC1 (stereo unspecified)	11
COc1ncccc1C(=O)N1CCCC(C(=O)c2cc(F)ccc2F)C1 (stereo unspecified)	15
N#Cc1ccccc1Sc1ccccc1C(=O)OCC(=O)NC12CC3CC(CC(C3)C1)C2	9
CN(C)CCCN(C(=O)c1ccco1)c1nc2c(F)cc(F)cc2s1	16
N#CC(C#N)=C1C=C2C=C(N3CCOCC3)CCC2CC1 (stereo unspecified)	9
COc1ccc(C=O)cc1OS(=O)(=O)c1ccc(NC(C)=O)cc1	16
COc1cccc(N=Cc2nc(-c3ccccc3)oc2OC(C)=O)c1	12
Cc1cc2nnc(SCC(=O)Nc3cccc(S(=O)(=O)N4CCOCC4)c3)n2c2ccccc12	16
CCCN(CC(=O)Nc1ccc(F)c(F)c1F)Cc1cc(=O)n2ccsc2n1	8
COC(=O)C1=NNC2(c3ccc(C)cc3)C(=O)N(c3cccc(C)c3C)C(=O)C12 (stereo unspecified)	8
CCN(CC)Cc1cc(NC2=NS(=O)(=O)c3ccccc32)ccc1OC(=O)c1ccccc1	11
CN1CCCC(OC(=O)c2cc(Cl)cc(Cl)c2)C1 (stereo unspecified)	-17
CCNC(=O)CSc1nnc(-c2ccccc2Br)n1-c1cccc(C(F)(F)F)c1	7
Cc1cc2c(cc1C)C(c1ccccc1Br)CC(=O)N2 (stereo unspecified)	12
Cn1c(SCC(=O)Nc2ncc(C(F)(F)F)cc2Cl)nnc1-c1ccc(Cl)cc1	14
O=C1C(=O)N(c2ccccc2)C(c2ccccc2[N+](=O)[O-])/C1=C(\O)c1ccccc1 (stereo unspecified)	22
CC(=O)Nc1ccc(Sc2ccccc2C(=O)O)cc1	-5
O=C(O)c1ccc(NC(=S)N2CCCCC2)cc1	20
S=C1NNC2(CC3CC2C2CCCC32)NN1 (stereo unspecified)	12
c1ccc(CSc2ccc3nnc(-c4cccnc4)n3n2)cc1	3
Cn1cc(Br)c(-c2cccc(N3C(=O)CC(C)(C)CC3=O)c2)n1	3
COc1ccc(-c2noc(CCc3ccccc3)n2)cc1	-9
CS(=O)(=O)N1N=C(c2ccco2)CC1c1ccc(Br)cc1 (stereo unspecified)	4
O=c1c2ccccc2nc(SCc2nc3ccccc3s2)n1CCCO	15
COCCN1CCn2c(nc3cc(Nc4nnc(C)c5ccccc45)ccc32)C1	15
NC(=O)c1cnn(-c2cccc(Cl)c2)c1N	29
Cc1cccc2nc(CSc3nc4ccc([N+](=O)[O-])cc4[nH]3)c(Br)n12	8
O=Cc1ccc(-c2cccc(C(=O)O)c2)o1	14
Nc1c(C(=O)c2cccs2)sc2nsc(SCCN3CCCCC3)c12	22
Cc1ccc(S(=O)(=O)CCC(=O)NCCN2C(=O)S/C(=C/c3ccc(F)cc3)C2=O)cc1	-3
Cc1ncc(CN2CCN(CCc3ccccc3)C(CCO)C2)s1 (stereo unspecified)	26
O=C1CCCN1CCC12CC3CC(CC(C3)C1)C2	11
Cc1cc(NC(=O)c2ccccc2F)n(C(C)(C)C)n1	20
O=C(NNc1cccc(Cl)n1)C1CC1	16
O=C(N/N=C/c1ccc2c(c1)OCCO2)c1ccncc1	7
CC(C)Cc1nnc(NC(=O)Nc2ccccc2)s1	2
O=C(N/N=C/c1ccc([N+](=O)[O-])o1)c1cc2c(ccc3ccccc32)o1	27
CCO[C@@H]1OC(C(N)=O)=C[C@H](c2coc3ccccc3c2=O)[C@H]1CCCO	17
CS(=O)(=O)N1CCN(c2nc3ccc(Cl)cc3s2)CC1	29
COc1ccc2nc(N=Nc3c(O)ccc4ccccc34)sc2c1	-9
CCOc1cccc2sc(N(CCCN(C)C)C(=O)c3ccc(S(=O)(=O)N(C)c4ccccc4)cc3)nc12	17
Remaining list, next part
SMILES	Calb biofilm kill
Cc1ccc(C)c(/C=N/NC(=S)NC(C)C)c1	12
COC(=O)CCC(=O)NNC(=O)c1cccc(Br)c1	4
Cc1ccc2ncccc2c1NC(=S)NC(=O)c1ccccc1	13
O=C(NCCc1c[nH]c2ccccc12)C(=O)NCC(c1ccco1)N1CCN(c2ccccc2F)CC1 (stereo unspecified)	12
COc1ccc(Cc2[nH]n3c(=O)cc(C)nc3c2-c2ccccc2)cc1	-3
Cc1nc2c(-c3ccc(Cl)cc3)c(C)[nH]n2c(=O)c1Cc1ccccc1	14
Cc1c2c(n3c(nc4ccccc43)c1C#N)N(CCN1CCOCC1)CC2	3
O=C(CSc1nnc(SCc2ccc(Cl)cc2)s1)N/N=C/c1c[nH]c2ccccc12	7
Cc1ccc(-c2n[nH]c(=S)n2/N=C/c2sccc2C)cc1	11
COc1ccc(-n2cnnc2SCC(=O)Nc2cccnc2Cl)cc1	11
C/C(=N\NC(=O)CNC(=O)C1COc2ccccc2O1)c1ccc(Cl)cc1 (stereo unspecified)	14
CN(CCC#N)C(=O)COC(=O)c1ccc(Cl)c(S(=O)(=O)N(C)c2ccccc2)c1	2
CC(C)(O)C(=O)NNC(=S)NCc1ccco1	11
CC(=O)N(c1nc(/C=C\C(=O)O)cs1)c1ccccc1F	17
CC(=O)c1c(C)[nH]c(C(=O)CSc2nnc(N)s2)c1C	4
O=C(O)[C@H](Cc1ccccc1)NC(=O)N1CCN(c2cccc(C(F)(F)F)c2)CC1	19
CCN(CC)c1ccc(C=O)c(OC)c1	23
COc1ccc(C(=O)C(OC(=O)c2ccccc2Cl)c2ccccc2)cc1 (stereo unspecified)	17
CNc1ccc(/C=C/C(=O)c2ccc(C)cc2)cc1[N+](=O)[O-]	9
CCOc1cc(CNCCCN2CCOCC2)cc(Br)c1OCc1ccccc1Cl	0
CCOc1ccc(/C=N/OC(C)C(=O)NCc2ccc3c(c2)OCO3)cc1 (stereo unspecified)	17
O=C(O)C1=C[C@H](c2csc3ccccc23)C[C@H](OCc2ccc(CO)cc2)O1	21
CCN(CC)C(=O)CSC(Nc1cccc(F)c1)=C(C#N)C#N	12
Cc1ccc(S(=O)(=O)N2CCN(C(=O)c3n[nH]c(=O)c4ccccc34)CC2)cc1	-3
C/C(=N\NC(=O)CSc1nc2ccccc2s1)c1cccnc1	7
O=c1sc2ccccc2c(=O)n1Cc1ccccc1F	-28
CN(C)CCSc1nc(O)c(-c2ccccc2)c(=O)n1-c1ccccc1	9
CCN(CC)c1ccc(/C=N/N2C(=O)c3ccccc3C2=O)cc1	21
CCN(C(=O)CSc1nnc(-c2ccccc2Br)o1)C1CCS(=O)(=O)C1 (stereo unspecified)	-10
Cc1ccc(C(=O)NCC(=O)NCCc2ccc(S(N)(=O)=O)cc2)s1	1
FC(F)(F)c1cccc(Cc2noc(CN3CCCC(OCc4ccccn4)C3)n2)c1 (stereo unspecified)	31
CCOc1ccc(NC(=O)COn2nnc3ccc(S(=O)(=O)N4CCOCC4)cc32)cc1	18
C#CCOCCOCCOCCNc1nc(N2CCN(C(=O)C(Cc3cc4ccccc4[nH]3)n3cc(C(N)Cc4ccc(O)cc4)nn3)CC2)nc(N2CCN(C(=O)C(Cc3cc4ccccc4[nH]3)n3cc(C(N)Cc4ccc(O)cc4)nn3)CC2)n1 (stereo unspecified)	16
CC(C)(C)OC(=O)CC[C@@H](C(=O)N1CCN(C(=O)OC(C)(C)C)CC1)n1cc(C(Cc2ccc(O)cc2)NC(=O)OC(C)(C)C)nn1 (stereo partly specified)	20
CCCn1c(SCC(=O)NCc2ccc(C)cc2)n[nH]c1=O	9
Cc1c(O)cc2c(c1O)C(=O)CC(c1ccc(O)cc1)O2 (stereo unspecified)	20
Cc1cc2c(=O)oc(-c3ccc(Br)cc3)nc2s1	21
O=C(CCl)Nc1cccc(S(=O)(=O)N2CCCCCC2)c1	-10
Cc1csc(SC(C)C(=O)NCc2ccc3c(c2)OCO3)n1 (stereo unspecified)	1
C=CCn1c(SCC(=O)CC(=O)OCC)nc2cc(C(=O)N3CCC(C(N)=O)CC3)ccc2c1=O	8
CSc1ccc(C(=O)C2CCCN(C(=O)c3nn(C)c(=O)c4ccccc34)C2)cc1 (stereo unspecified)	11
COC(=O)C1C(=O)/C(=C/N(C)C)C(=O)CC1(C)C (stereo unspecified)	8
CCOC(=O)C1(Cc2ccccc2C)CCCN(C(=O)c2cc(CC)nn2C)C1 (stereo unspecified)	33
CCN(CC)S(=O)(=O)c1ccc(Cl)c(NC(C)=O)c1	17
O=C(NC(=S)N1CCN(c2ccc(C(F)(F)F)cc2[N+](=O)[O-])CC1)c1cccs1	14
Cc1ccc(-c2nnc(SCC(=O)NC3CCCc4ccccc43)n2N)cc1 (stereo unspecified)	12
COC(CNC(=O)[C@H](CSCc1ccccc1)N1Cc2ccccc2C1=O)OC	15
CCOC(=O)C1(CCOC)CCN(Cc2ccncc2)CC1	9
S=C(NC1CCCCC1)N1CCN(c2ncccn2)CC1	9
Cc1ccc2c(c1)N(CC(=O)NCc1ccco1)C(=O)CO2	7
(continued)
SMILES	Calb biofilm kill
O=C1N(Cc2cccnc2)C[C@@H]2C[C@@H](c3ccc(-c4ccccc4)cc3)N3CCC[C@@]123	28
CN(C)CCCn1c(SCC(=O)Nc2nc(-c3cccc(Br)c3)cs2)nc2ccccc2c1=O	19
COC(=O)c1ccc(COc2cc([N+](=O)[O-])cc3cccnc23)o1	18
COC(=O)c1cccc(Oc2cccc(Cl)n2)c1	20
COc1cccc(OC)c1C(=O)OCC(=O)/C(C#N)=C(\C)N	-3
COc1cc(NC(=S)NCc2ccc(S(N)(=O)=O)cc2)cc(OC)c1	14
CCOC(=O)/C=C/C(=O)OCC(=O)Nc1cccc(Br)c1	15
CCc1cccc(C)c1NC(=O)CSc1nc(-c2ccccc2F)nc2nc[nH]c12	-14
O=C(O)c1ccccc1/C=N/NC(=O)c1cc(-c2ccco2)nc2ccccc12	5
CC1(OC(=O)CCc2ccccc2)C(=O)C=C2C=C(c3ccc(C#N)cc3)N(C3CC3)C=C2C1=O (stereo unspecified)	22
CCN(CC)C(=O)c1ccccc1NC(=O)c1ccccc1SC	9
CC(C)C(OC(=O)/C=C/c1ccc2c(c1)OCO2)C(=O)NC(N)=O (stereo unspecified)	16
CCN(CC)CC(=O)N1c2ccccc2Oc2c(c(=O)n(C)c(=O)n2C)C1c1cccc([N+](=O)[O-])c1 (stereo unspecified)	9
CSc1nc2nc3c(cc2c(=O)n1-c1cccc(C)c1)COC(C)(C)C3	12
CCOC(=O)C1=NOC(C(=O)NN(C)c2ncc(C(F)(F)F)cc2Cl)C1 (stereo unspecified)	24
COc1ccc(C(=O)COc2cccc(NC(=O)c3ccco3)c2)cc1	18
CCOC(=O)C1(CCOc2ccccc2)CCN(Cc2cc(OC)c3c(c2)OCO3)CC1	18
COc1ccc(-c2cc(OC)c3ccccc3n2)cc1	18
COc1cc(/C=N/NC(=O)C(Cc2c[nH]c3ccccc23)NC(=O)OCc2ccccc2)cc([N+](=O)[O-])c1O (stereo unspecified)	21
O=C(Nc1nnc(-c2ccccc2F)s1)Nc1ccccc1F	2
C[C@@H]1NC(=O)/C(=C\c2ccccc2Cl)NC1=O	-7
COc1cc(NC(=O)c2ccccc2-c2ccccc2)cc(OC)c1	6
CCOC(=O)C1CCCN(Cc2cc(=O)oc3cc(C)ccc23)C1 (stereo unspecified)	2
Cc1cc(C(=O)Nc2cc(C(C)(C)C)on2)c(C)o1	19
Cc1sc(C(C2C(=O)CC(C)(C)CC2=O)C2C(=O)CC(C)(C)CC2=O)cc1[N+](=O)[O-]	14

This is a subset; count on the stated rates, not on these rows.
